KCNQ2 pot = KCNQ2 (rat) channel potentiation | O88943 | CHO-K1 KCNQ2, FluxOR thallium flux fluorescence; stronger effect = higher value | B-score at 10 µM | actives 0.54% (n = 310,000) | AID 2239;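 active = fluorescence ratio B-score at least 3 SD of library B-scores, with initial fluorescence B-score within 3 SD, cut at about 5.3 in these data; same plate scores as AID 2156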;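 note: B-score of peak minus minimum over baseline fluorescence ratio after K+ and Tl+ stimulus; positive B-score means potentiation of KCNQ2 with more thallium influx and brighter signal; only the inactives scoring about 0 or higher are listed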
Target sequence (O88943 whole entry, looked up): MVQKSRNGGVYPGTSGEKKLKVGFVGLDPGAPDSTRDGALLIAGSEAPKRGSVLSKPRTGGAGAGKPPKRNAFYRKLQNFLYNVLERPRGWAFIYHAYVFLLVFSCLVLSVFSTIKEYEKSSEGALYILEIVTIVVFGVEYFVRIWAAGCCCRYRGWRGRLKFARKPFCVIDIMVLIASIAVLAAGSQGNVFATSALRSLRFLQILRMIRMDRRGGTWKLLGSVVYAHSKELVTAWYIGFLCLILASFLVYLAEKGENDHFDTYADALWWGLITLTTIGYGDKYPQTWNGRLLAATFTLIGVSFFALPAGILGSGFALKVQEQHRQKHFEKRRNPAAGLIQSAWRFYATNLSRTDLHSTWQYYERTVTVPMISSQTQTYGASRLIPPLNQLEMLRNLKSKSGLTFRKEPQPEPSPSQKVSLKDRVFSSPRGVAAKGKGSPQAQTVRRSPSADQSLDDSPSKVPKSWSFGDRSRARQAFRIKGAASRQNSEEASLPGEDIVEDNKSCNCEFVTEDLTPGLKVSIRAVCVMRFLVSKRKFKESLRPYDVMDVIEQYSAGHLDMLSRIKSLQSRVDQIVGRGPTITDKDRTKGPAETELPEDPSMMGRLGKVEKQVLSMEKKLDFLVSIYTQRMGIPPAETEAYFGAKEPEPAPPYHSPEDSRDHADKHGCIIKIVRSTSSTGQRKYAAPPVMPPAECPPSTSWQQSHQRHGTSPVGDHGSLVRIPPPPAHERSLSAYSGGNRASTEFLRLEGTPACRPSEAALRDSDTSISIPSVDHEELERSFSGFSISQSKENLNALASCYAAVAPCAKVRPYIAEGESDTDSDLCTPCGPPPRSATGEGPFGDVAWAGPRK
KCNQ2 pot baseline = further read-out of KCNQ2 pot, marked with its call; B-score; compound at 10 µM; measured here: initial fluorescence intensity artifact check;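 brightness before thallium and not channel activity; 0 = typical well and far values either way flag optical interference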
The depositor's hits bear a star. Some of the compounds tested; count on the stated rates, not on these rows.

SMILES	KCNQ2 pot	KCNQ2 pot baseline
Cc1nc2c(C)cccn2c1/C(O)=C1\C(=O)C(=O)N(CCN2CCOCC2)C1c1cccs1 (stereo unspecified)	0.27	-0.09
Cc1ccc(C(=O)CSc2nnc(C(C)C)n2C)cc1C	0.37	-0.51
O=C(CCNC(=O)Cn1ccc2ccccc2c1=O)NCCC1=CCCCC1	0.75	0.05
CC(=O)CSc1nc(C(F)(F)F)cc(=O)n1-c1ccccc1	0.17	-0.23
COc1cc2c3c([nH]c2cc1F)C(=O)NCC3	0.13	0.99
O=C(NCc1ccc2c(c1)OCO2)c1c(Cl)cccc1Cl	0.05	0.98
O=C(c1cc(-c2cccc(O)c2)on1)N1CCCCC1	0.76	1.8
COc1ccccc1CNC(=O)CS(=O)(=O)c1ccccc1	0.22	0.52
CCc1ccc(NC(=S)N2CCN(c3cccc(C(F)(F)F)c3)CC2)cc1	0.95	-0.37
Cc1cc(C)c(NC(=O)C2=COCCO2)c(C)c1	1.2	-0.7
O=C(COc1cccnc1[N+](=O)[O-])NC1CCS(=O)(=O)C1 (stereo unspecified)	0.8	0.09
COC(=O)CCCC1=CC2=C(c3ccccc3)C(=O)C(C)(OC(=O)C3CCCC3)C(=O)C2=CN1C(CO)CO (stereo unspecified)	0.41	-0.2

SMILES	KCNQ2 pot	KCNQ2 pot baseline
CCOC(=O)c1sc(C)c2c1NC(c1ccc(Cl)cc1)NC2=O (stereo unspecified)	0.67	-2.3
Cc1ccccc1-c1noc(CCC(=O)NC2CCCCC2)n1	1.6	0.18
COc1ccc(C2CC(c3cccs3)=NN2C(=O)COC(=O)c2cc3ccccc3cc2O)cc1OC (stereo unspecified)	1.2	0.99
O=C(NC(=S)Nc1ccccc1N1CCCCC1)c1ccc(F)cc1	0.15	1
COc1ccccc1NS(=O)(=O)c1ccc2c(c1)NC(=O)C(C)S2 (stereo unspecified)	0.97	-1.9
NC(=O)CSc1nnc(NC(=O)C23CC4CC(CC(C4)C2)C3)s1	0.11	2.9
CCc1cccc2c(C(=O)CSc3nncn3-c3ccccc3OC)c[nH]c12	1.4	0.25
C=CCn1c(-c2ccc(S(=O)(=O)N3CCOCC3)cc2)csc1=Nc1ccccc1	0.37	-0.02
CCOC(=O)c1c(C)oc2c1c(C(c1ccccc1)N1CCOCC1)c(O)c1ccccc12 (stereo unspecified)	1	1.2
CN(C)C(=O)N(CCCN1CCOCC1)Cc1cccc2ccccc12	0.5	1.5
Cc1scc(C(=O)N/N=C/c2ccco2)c1C	2.9	0.75
COc1ccccc1NS(=O)(=O)c1cc(C(=O)NCc2ccncc2)ccc1C	1.5	-0.63

SMILES	KCNQ2 pot	KCNQ2 pot baseline
COc1ccc(Cn2c(N)c(C#N)c3nc4ccccc4nc32)cc1	0.59	-1.3
COc1ccc(OC)c(C2=NOC(C(=O)Nc3ccccc3SC)C2)c1 (stereo unspecified)	1.3	-0.34
Cc1cc(NC(=O)C(C)SCC(=O)Nc2ccccc2N2CCCCC2)no1 (stereo unspecified)	0.59	-1.6
CC(C)C(OC(=O)c1cccs1)C(=O)NCc1ccc2c(c1)OCO2 (stereo unspecified)	3.3	-0.31
Cc1cccc(NS(=O)(=O)c2c(C)n[nH]c2C)c1	0.99	-2.9
Cc1ccsc1C(=O)N/N=C/c1ccc([N+](=O)[O-])cc1	0.05	-0.1
Cc1csc(SCC(=O)NCc2ccccc2)n1	0.64	0
O=c1c2ccccc2nc2n1C(CSCc1ccc(Cl)cc1Cl)CS2 (stereo unspecified)	0.85	-1.9
CC(Sc1ccc2nnc(-c3ccc(F)cc3)n2n1)C(=O)O (stereo unspecified)	1.6	-1.5
Cc1ccc(/C=C2\C(=O)Nc3ccccc32)o1	0.14	0.06
COc1cccc(CN2CCNC(=O)C2CC(=O)N(C)Cc2nc(C)cs2)c1OC (stereo unspecified)	0.65	-0.51
O=C(NC(Cc1ccccc1)C(=O)N1CCN(S(=O)(=O)c2ccccc2)CC1)c1ccccc1 (stereo unspecified)	0.96	-1

SMILES	KCNQ2 pot	KCNQ2 pot baseline
COc1ccc(CNCc2cccn2C)cc1	0.82	-0.16
Cc1cc(C)cc(NC(=O)CCN2CCOCC2)c1	0.01	-0.63
COc1ccc(CCNC(=O)CCCC(=O)n2nc(C)c3ccccc32)cc1OC	0.01	-1.5
O=C(Nc1ccc(Br)cc1)c1cccc(S(=O)(=O)Nc2cnc3ccccc3c2)c1	0.59	-0.77
CC1CCc2c(sc3ncn(Cc4ccc(C(=O)O)cc4)c(=O)c23)C1 (stereo unspecified)	2.3	-1.1
O=C(NCc1cccnc1)c1cc(Sc2ccc(F)cc2F)nc2ccccc12	1.9	0.69
C=CCC1(O)CC(c2ccco2)NC(c2ccco2)C1CCC (stereo unspecified)	0.06	1.6
CCOC(=O)c1ccc(N2CC(O)=C(c3nc4ccccc4c(=O)[nH]3)C2=N)cc1	0.1	-0.5
COc1ccc(N2CC(C(=O)OCC(=O)c3cccc(OC)c3)CC2=O)cc1 (stereo unspecified)	0.18	0.94
CCOc1ccccc1NC(=O)Nc1c(C)n(-c2ccccc2)c(=O)n1C	0.13	-0.11
NC(=O)CC(NC(=O)Cc1cccc2ccccc12)c1ccc(NCCc2ccccc2F)c([N+](=O)[O-])c1 (stereo unspecified)	1.6	1.2
CCC(C)(C)NC(=O)C(c1ccccn1)N(C(=O)c1csnn1)C1CCCCC1 (stereo unspecified)	1.1	0

SMILES	KCNQ2 pot	KCNQ2 pot baseline
CCCC(=O)NC(C)c1nc2ccccc2n1CC (stereo unspecified)	0.5	0.64
CCC(=O)NC(=Nc1nc2ccccc2s1)NC(=O)CC	2.2	1.5
OC(COc1ccc(OCC(O)CN2CCN(Cc3ccccc3)CC2)cc1)CN1CCN(Cc2ccccc2)CC1 (stereo unspecified)	2.1	-0.24
CN(C)C(=S)NC(C)(C)C	0.19	0.9
CCOC(=O)C1(Cc2cccc(F)c2)CCN(C(=O)COC)CC1	1.4	2.5
Cc1ccc(N(CC(=O)NCc2ccc3c(c2)OCO3)C(=O)CCC(=O)Nc2ccccn2)cc1	0.7	-1.7
Cc1cc2c(cc(C(=O)O)n2C)s1	1.7	-0.74
Cc1c(C(=O)N(Cc2cccc(Br)c2)C2CCS(=O)(=O)C2)oc2ccc(F)cc12 (stereo unspecified)	1.5	0.12
Cc1ccc(OCCC(=O)OCC(=O)N2CCN(S(=O)(=O)c3ccc(Cl)cc3)CC2)cc1	0.46	-0.89
COc1cccc2cc(C(=O)NCc3ccccc3Br)c(=O)oc12	1.9	2.5
Cc1ccc2c(c1)cc(CN(Cc1cccnc1)C(=O)NCc1ccccc1)c1nnnn12	1.8	-2.5
O=C1CCC/C(=N\NC(=O)COc2ccc(Cl)cc2)C1	0.85	0.76

Random excerpt: 7 records from the list
SMILES	KCNQ2 pot	KCNQ2 pot baseline
Cc1ccc(N(CC(=O)NCc2ccc3c(c2)OCO3)C(=O)CCC(=O)Nc2ccccn2)cc1	0.7	-1.7
COc1cccc2cc(C(=O)NCc3ccccc3Br)c(=O)oc12	1.9	2.5
CCCC(=O)NC(C)c1nc2ccccc2n1CC (stereo unspecified)	0.5	0.64
CN(C)C(=S)NC(C)(C)C	0.19	0.9
CCC(=O)NC(=Nc1nc2ccccc2s1)NC(=O)CC	2.2	1.5
O=C1CCC/C(=N\NC(=O)COc2ccc(Cl)cc2)C1	0.85	0.76
CCOC(=O)C1(Cc2cccc(F)c2)CCN(C(=O)COC)CC1	1.4	2.5

(listing goes on)
SMILES	KCNQ2 pot	KCNQ2 pot baseline
CCC(CC)C(=O)Nc1c2c(nn1-c1ccc(OC)cc1)CS(=O)C2 (stereo unspecified)	0.21	0.35
Cc1cc(C(=O)CCC(=O)N2CCN(S(=O)(=O)c3cccs3)CC2)c(C)s1	4.9	0.31
CCCCS(=O)(=O)/C=C/[C@H]1[C@H](S(=O)(=O)CCCC)[C@H]2C=C[C@@H]1C2	1.2	-0.53
CC1C=CCC2C(=O)N(c3cccc(C(=O)N4CCCCCC4)c3)C(=O)C12 (stereo unspecified)	0.88	0.18
Cc1ccc(NC(=O)CCCSc2nc3ccccc3[nH]2)cc1	0.87	-1.1
CN(CC(=O)Nc1ncn[nH]1)S(=O)(=O)c1ccc(Br)cc1	1.6	-0.53
Cc1oc(-c2cccc(C(F)(F)F)c2)nc1CN1CCOCC1	0.11	0.29
COC(=O)CSc1cc(C)nc(SC)n1	0.52	-1.1
O=C1c2c(O)cc(O)cc2O[C@H](c2ccc(O)c(O)c2)[C@H]1O	0.29	-0.18
COc1ccccc1/C=C1\SC(=S)N(NS(=O)(=O)c2ccccc2)C1=O	1.4	-2.4
Cc1ccc(SC2CCN(C(=O)C3CCC(=O)N(C4CC4)C3)CC2)cc1 (stereo unspecified)	1.4	-1.2
CCOc1cc(OCC)cc(C(=O)NCCCN2CCOCC2)c1	2.2	0.27

SMILES	KCNQ2 pot	KCNQ2 pot baseline
Cc1ccc(C(CC(=O)N2CCOCC2)c2ccco2)cc1 (stereo unspecified)	0.22	0.19
Cc1cc(NC(=O)COC(=O)CSc2nc3cc(Cl)ccc3n2Cc2ccccc2)no1	0.06	-1.4
COc1ccc(CN(CC(=O)NCc2ccco2)C(=O)CNS(=O)(=O)c2ccc(C)cc2)cc1	1.9	-0.29
O=S(=O)(N1CCCCC1)N1CCNCC1	0.06	0.35
COc1ccc(N2CC(C(=O)Nc3nnc(SCC(=O)c4ccccc4)s3)CC2=O)cc1 (stereo unspecified)	0.03	1.3
COc1ccc(Cc2nnc(NC(=O)c3ccccc3C)s2)cc1	0.08	3.7
COCCNC(=O)NC(=O)COC(=O)C12CC3CC(CC(NC(C)=O)(C3)C1)C2	0.01	0.05
Cc1ccccc1-c1cc2nc(-c3ccc([N+](=O)[O-])cc3)cc(=O)n2[nH]1	1.7	-1.4
CCOC(=O)Cn1c(C)[n+](C)c2cc(Cl)c(Cl)cc21	1.5	-0.51
COc1cc(Cn2nnc3ccccc32)cc(Br)c1O	0.93	0
Cc1c(NC(=O)C2CC=CCC2C(=O)O)c(=O)n(-c2ccccc2)n1C (stereo unspecified)	0.93	-0.85
CCN(C(=O)COC(=O)c1c(C)noc1C)C1CCS(=O)(=O)C1 (stereo unspecified)	1.9	-0.95

SMILES	KCNQ2 pot	KCNQ2 pot baseline
O=C1O/C(=C\C(=O)N2CCOCC2)c2ccccc21	0.85	0.03
O=C(Nc1cccnc1)c1ccc(C(=O)Nc2cccnc2)cc1	0.17	1.2
CCO[C@@H]1OC(C(=O)Nc2ccccc2)=C[C@H](C2CC2)[C@H]1CCCO	0.97	-2
CC(=O)C1=C(C)Nc2ncnn2C1c1cccc(O)c1 (stereo unspecified)	0.47	1.3
CCc1ccc(C(=O)Cn2ccsc2=N)cc1	0.79	-0.51
CCCC(c1nnnn1CCOC)N1CCN(C(=O)c2ccco2)CC1 (stereo unspecified)	0.54	-1.2
Cc1nc(C(=O)NC2CCOCC2)sc1C1(C)CC(c2ccccc2)=NO1 (stereo unspecified)	1.7	0.15
Nc1nnc(SCc2ccc(F)cc2Cl)s1	0.29	-0.76
CC(=O)CCCCn1cnc2c1c(=O)n(C)c(=O)n2C	0.01	-0.04
CCOC(=O)c1cccc(NC(=O)CSc2nncn2-c2ccccn2)c1	1.2	0.24
Cc1cc(C)n2ncc(C(=O)NCc3ccc(Cl)cc3)c2n1	1.4	-0.67
CCOC(=O)c1ccc(NC(=O)CCS(=O)(=O)c2ccc(Br)s2)cc1	1.4	0.15

SMILES	KCNQ2 pot	KCNQ2 pot baseline
Cc1cc(C)c[n+](-c2nc3ccccc3nc2[N-]S(=O)(=O)c2ccc(Cl)cc2)c1	0.61	1.4
COc1ccc2nc(Nc3nc(CSc4nnc(C)s4)cc(=O)[nH]3)nc(C)c2c1	0.25	1.7
Cc1ccc(S(=O)(=O)Nc2c(C)cc(C)nc2Cl)cc1	1	0.54
CCOc1ccc(NC(=O)CC2C(=O)N(c3ccccc3)C(=O)N2Cc2ccco2)cc1 (stereo unspecified)	1.2	-2.2
COc1ccc(/C=C2\CCC(C3CCCC3)C2=O)cc1 (stereo unspecified)	0.96	-0.08
COc1ccc(CCN2C(=O)NC(NS(=O)(=O)c3ccc(N)cc3)(C(F)(F)F)C2=O)cc1OC (stereo unspecified)	0.4	0.02
CCCCOc1ccc(C(=O)N2CC(C)OC(C)C2)cc1 (stereo unspecified)	1.2	-0.8
CC(C)(C)SCCNC(=O)/C=C/c1ccc([N+](=O)[O-])cc1	0.1	-1.6
O=C(Cc1ccc([N+](=O)[O-])cc1)N1CCCCCC1	0.23	-2.2
O=C(NCC1CC1)C1(S(=O)(=O)c2ccccc2)CC=CC1	3.1	0.97
COC(=O)CCNC(=O)c1ccc2[nH]c(C)c(C)c2c1	1.4	0.42
COc1cccc(NC(=S)NC(=O)c2c(Cl)c(C)nn2C)c1	0.65	-0.23

SMILES	KCNQ2 pot	KCNQ2 pot baseline
Cc1cc(OCCN2CCCC2)ccc1[N+](=O)[O-]	0.27	-0.27
O=C(c1ccc(-c2ccccc2)cc1)c1ccccc1C(=O)N1CCOCC1	0.01	0.62
COCCNC(=O)c1sc2nc(-c3ccccc3)cn2c1C	0.09	1.7
CCOC(=O)N(C)c1ccc(C(O)(C(F)(F)F)C(F)(F)F)cc1	1.9	2.6
CCc1noc(C)c1C(=O)OCC(=O)N(CC)c1c(N)n(Cc2ccccc2)c(=O)[nH]c1=O	0.53	0.68

Assay outcomes: PubChem BioAssay, Johns Hopkins Ion Channel Center
